Compound activity: PubChem, National Center for Advancing Translational Sciences (NCATS)
Cruzain inh Det: qHTS Assay for Promiscuous and Specific Inhibitors of Cruzain (with detergent); Cruzipain (Trypanosoma cruzi), P25779; purified cruzain, Z-FR-AMC fluorescence, 0.01% Triton; Potency, µM, inactives show max response, negative = inhibition, usual class: inhibitors; 200,000 tested, 0.43% active; AID 1478, 2009; active means well fitted curve in the direction sought with a large enough effect; inconclusive means small, poorly fitted or top-dose-only effect, or another doubt; inactive means no such curve, though single readings can be large; an effect the other way counts as inactive or inconclusive;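 further: plate controls were neutral wells for no effect and buffer without enzyme for full effect; nearly all actives have a fitted effect of over 40% in size; top concentration of the series not given in the record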
Target sequence (P25779 123-467 limits assumed): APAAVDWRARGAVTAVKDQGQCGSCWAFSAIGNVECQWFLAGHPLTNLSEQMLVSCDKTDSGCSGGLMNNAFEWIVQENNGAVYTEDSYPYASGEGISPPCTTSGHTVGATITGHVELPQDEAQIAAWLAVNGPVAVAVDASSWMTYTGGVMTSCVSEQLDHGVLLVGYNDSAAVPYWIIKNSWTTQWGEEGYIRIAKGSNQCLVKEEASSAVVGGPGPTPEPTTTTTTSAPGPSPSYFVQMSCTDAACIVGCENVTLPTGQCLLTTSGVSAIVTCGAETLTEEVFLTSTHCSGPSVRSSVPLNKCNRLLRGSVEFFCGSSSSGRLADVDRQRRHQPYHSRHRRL
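Cysteine protease activity tested under reducing, mildly acidic conditions (100 mM sodium acetate pH 5.5, 5 mM DTT) plus 0.01% Triton X-100. Cruzain 1.5 nM; substrate Z-FR-AMC 2 uM; 15 min compound preincubation at room temperature.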
Marburg entry inh: qHTS for inhibitors of binding or entry into cells for Marburg Virus; Marburg virus pseudotyped entry inhibition, cell reporter; control for the full effect not named in the record; about a third of the inactives were read at about 46 µM; Potency, µM (top dose mostly 37.8 µM), for inactives: top-dose activity change, negative = inhibition, hits mostly inhibitors; 300,000 tested, 1.8% active; AID 540276, 2011; active = well fitted inhibition curve with a large enough effect; inconclusive = small, poorly fitted or top-dose-only effect, or effect the other way; inactive = flat fitted curve, though single readings scatter; tested in HEK293 cells; about a fifth of its hits are not listed in these tables; further: on the % scale 0 is the no-effect control and ±100 the full control effect; luciferase read-out
SARS PLP yeast: qHTS of Yeast-based Assay for SARS-CoV PLP | S. cerevisiae expressing SARS-CoV PLpro, growth rescue; control for the full effect not named in the record | AID 485353, 2010 | Potency, µM (series often up to 32.9 µM), for the others: at the top dose activity, positive = growth rescue | 330,000 tested, 0.19% active; further: 0% is about no effect; nearly all actives have a fitted effect of over 55% in size; growth read by luminescence after 48 h
StopGo reporter: High Throughput Screening for Foot and Mouth Disease Virus Antivirals; 410,000 tested, 1.2% active; human cells with a luciferase reporter of 2A StopGo recoding; control for the full effect not named in the record; Potency, µM (doses to about 57.9 µM), inactives show at the highest dose signal change, negative = less light; active = well fitted falling curve with a large enough effect; inconclusive = small, poorly fitted or top-dose-only effect; inactive = no such curve, though single readings can be large or run the other way; tested in HEK293T cells; further: on the % scale 0 is the no-effect control and ±100 the full control effect; nearly all actives have a fitted effect of over 45% in size; luciferase light after 4 h
RE007 growth inh: qHTS Assay for Inhibitors of the HIV-1 protein Vpr; S. pombe RE007 Vpr strain, BacTiter-Glo ATP luminescence, 24 h; control for the full effect not named in the record; Potency, µM (top dose mostly 92.2 µM), for inactives: top-dose activity change, negative = less growth; 360,000 tested, 0.21% active; active = well fitted falling curve with a large enough effect; inconclusive = small, poorly fitted or top-dose-only effect; inactive = no such curve, though single readings can be large or run the other way;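 further: on the % scale 0 is the no-effect control and ±100 the full control effect; nearly all actives have a fitted effect of over 50% in size; the assay follows cell death caused by Vpr and the record does not say whether a fall means rescue or toxicity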
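Fission yeast strain RE007, carrying one chromosomally integrated HIV-1 vpr copy, was seeded at OD 0.01 in PMG+AL medium with 23 nL pinned compound. After 24 h at 30 °C and 99% humidity, viability was read by BacTiter-Glo luminescence.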
Cruzain inh noDet: qHTS Assay for Promiscuous and Specific Inhibitors of Cruzain (without detergent); Cruzipain (Trypanosoma cruzi), P25779; Potency, µM, without a hit: max response, negative = inhibition, most hits filed as inhibitors; 200,000 tested, 2.3% active; purified cruzain, Z-FR-AMC fluorescence, no detergent; active means well fitted curve in the direction sought with a large enough effect; inconclusive means small, poorly fitted or top-dose-only effect, or another doubt; inactive means no such curve, though single readings can be large; an effect the other way counts as inactive or inconclusive;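 further: plate controls were enzyme without inhibitor for no effect and buffer without enzyme for full effect; nearly all actives have a fitted effect of over 40% in size; top concentration of the series not given in the record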
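Detergent-free condition (0.00005% Triton X-100) in acetate buffer pH 5.5 with DTT. 1.5 nM enzyme and compound were pre-mixed 15 min, then 2 uM Z-FR-AMC substrate added; reaction progress from fluorescence change between first and third reads (60 s).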
NS1 function inh: qHTS Assay for Inhibitors of Influenza NS1 Protein Function; Potency, µM (doses to about 46.1 µM), inactives show at the highest dose activity, positive = more growth; S. cerevisiae slowed by influenza A NS1, growth recovery by OD600; 270,000 tested, 0.4% active; further: actives are rising curves; nearly all actives have a fitted effect of over 50% in size
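In this qHTS, NS1 from influenza A is expressed in budding yeast, where it slows growth. Cells are switched from glucose to 2% galactose medium (pH 6.0, -URA), treated with compound, and growth recovery is read at OD600.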
LASV entry inh: qHTS for Inhibitors of binding or entry into cells for Lassa Virus | Potency, µM (highest dose often 37.9 µM), inactives show top-dose activity change, negative = inhibition, hits mostly inhibitors | 300,000 tested, 1.2% active | Lassa virus pseudotype entry inhibition, cell reporter; control for the full effect not named in the record; active means well fitted inhibition curve with a large enough effect; inconclusive means small, poorly fitted or top-dose-only effect, or effect the other way; inactive means flat fitted curve, though single readings scatter; tested in HEK293 cells; further: on the % scale 0 is the no-effect control and ±100 the full control effect; nearly all actives have a fitted effect of over 50% in size; luciferase read-out
An asterisk follows results filed as active; & = joins results of further samples; [ ] = dose if it differs, or a comment. Unless noted, the call rests on the fitted dose curve; in most records, active means well fitted rising curve with a large enough effect; inconclusive means small, poorly fitted or top-dose-only effect; inactive means no such curve, though single readings can be large or run the other way. Potency means the concentration at half of the fitted maximal effect.

How did Cc1cc2oc(=O)cc(CN3CCCCC3)c2cc1O do in these assays?
SARS PLP yeast: 1%; StopGo reporter: 22%; RE007 growth inh: 7%; NS1 function inh: 0%

Results for CCn1c(C)nc2cc(C(=O)NNC(=S)Nc3ccccc3)ccc21 ?
Marburg entry inh: inconclusive; SARS PLP yeast: 0%; StopGo reporter: 2%; RE007 growth inh: 6%; NS1 function inh: 0%; LASV entry inh: 4.5µM*

Results for O=C(N/N=C/c1sc2ccccc2c1O)c1cccc2ccccc12 ?
Cruzain inh Det: -4.1%; Marburg entry inh: 14µM*; SARS PLP yeast: 2.8µM*; StopGo reporter: 28%; RE007 growth inh: 6%; Cruzain inh noDet: 2%; NS1 function inh: 9%; LASV entry inh: inconclusive

Results for NS(=O)(=O)c1ccc(NC(=S)N2CCc3ccccc32)cc1 ?
SARS PLP yeast: 1%; StopGo reporter: -29%; RE007 growth inh: 12%; NS1 function inh: 15%

How did COc1ccc(C)cc1NC(=O)C1CCCN(S(=O)(=O)c2ccc3[nH]c(=O)ccc3c2)C1 (stereo not drawn) do in these assays?
Cruzain inh Det: -4.2%; Marburg entry inh: -27%&-27%[46.1 µM]; SARS PLP yeast: -1%; StopGo reporter: -8%&-20%; RE007 growth inh: -14%; Cruzain inh noDet: 25%; NS1 function inh: 9%; LASV entry inh: -10%&1%[46.1 µM]

How did COc1ccc(/C=C/C(=O)NC(=S)Nc2ccc(S(=O)(=O)Nc3cc(C)on3)cc2)cc1 do in these assays?
Marburg entry inh: -21%; SARS PLP yeast: 7%; StopGo reporter: 0%; RE007 growth inh: 1%; NS1 function inh: 9%; LASV entry inh: 5%

How did COc1cc(NC(=O)c2c(-c3ccccc3Cl)noc2C)c2ncccc2c1 do in these assays?
Marburg entry inh: 20%[46.1 µM]; StopGo reporter: -30%; RE007 growth inh: 1%; LASV entry inh: inconclusive

What do the screens show for `COc1cc(/C=N/NC(=O)Cc2ccccc2)cc(OC)c1OC`?
SARS PLP yeast: 1%; StopGo reporter: 7%; RE007 growth inh: 9%; NS1 function inh: 9%

What do the screens show for `CC1=CC(C)(C)N(C(=O)CSc2nnc(-c3ccccc3)o2)c2ccc(C)cc21`?
Cruzain inh Det: -0.7%; Marburg entry inh: inconclusive; RE007 growth inh: 15%; Cruzain inh noDet: -5%; NS1 function inh: -97%; LASV entry inh: 7%

How did CCc1nc(SCC(=O)c2cccc([N+](=O)[O-])c2)n[nH]1 do in these assays?
Cruzain inh Det: -9.4%; Marburg entry inh: 1%; SARS PLP yeast: -7%; StopGo reporter: 0%; RE007 growth inh: -4%; Cruzain inh noDet: 2%; NS1 function inh: 1%; LASV entry inh: 16%

What do the screens show for `Cc1cc(C)c(C#N)c(Oc2ccc(O)cc2)n1`?
Cruzain inh Det: 0.3%; SARS PLP yeast: 2%; StopGo reporter: -17%; RE007 growth inh: -16%; Cruzain inh noDet: 5%; NS1 function inh: -5%

What do the screens show for `CCOC(=O)CNC(=S)N(Cc1cccs1)C1CCCC1`?
Cruzain inh Det: 0.3%; Marburg entry inh: inconclusive; SARS PLP yeast: -2%; StopGo reporter: 12%; RE007 growth inh: -6%; Cruzain inh noDet: -13%; NS1 function inh: 7%; LASV entry inh: 2%

How did COCc1cccc(NC(=O)Cc2cccc3ccccc23)c1 do in these assays?
Marburg entry inh: -19%[46.1 µM]; SARS PLP yeast: -1%; StopGo reporter: 21%; RE007 growth inh: 28%; NS1 function inh: -10%; LASV entry inh: 4%

How did CCn1c(C)nc2cc(C(=O)N=Nc3c(O)[nH]c4ccccc34)ccc21 do in these assays?
Cruzain inh Det: -2.3%; Marburg entry inh: -5%; SARS PLP yeast: 17%; Cruzain inh noDet: 13%; NS1 function inh: 22%; LASV entry inh: -1%

Results for CCCCn1c(N)c(N(Cc2ccccc2OC)C(=O)COc2ccc(C)cc2)c(=O)[nH]c1=O ?
Marburg entry inh: inconclusive; StopGo reporter: 1%; RE007 growth inh: 17%; LASV entry inh: 17%

How did COc1cc2nc(C3CCC3)n(NC(=O)C3CCC3)c(=O)c2cc1OC do in these assays?
Cruzain inh Det: 3.6%; Marburg entry inh: inconclusive; SARS PLP yeast: -3%; StopGo reporter: -17%; RE007 growth inh: -9%; Cruzain inh noDet: 1%; NS1 function inh: 9%; LASV entry inh: -2%

Results for O=C(CNS(=O)(=O)c1ccc(Br)s1)NCc1ccc2c(c1)OCO2 ?
Cruzain inh Det: -0.3%; Marburg entry inh: 25%; SARS PLP yeast: 2%; StopGo reporter: 17%; RE007 growth inh: 16%; Cruzain inh noDet: -2%; NS1 function inh: 0%; LASV entry inh: -2%

How did CCn1c(CNC(=O)c2ccc(OC)cc2)nnc1SCC(=O)Nc1cccc(C)c1 do in these assays?
Cruzain inh Det: 1.6%; Marburg entry inh: 25%[46.1 µM]; StopGo reporter: -9%; Cruzain inh noDet: -8%; LASV entry inh: 5%[46.1 µM]

Results for O=C(NCc1ccc2c(c1)OCO2)C1CCN(c2nccc(C(F)(F)F)n2)CC1 ?
SARS PLP yeast: -1%; StopGo reporter: -7%; RE007 growth inh: -7%; NS1 function inh: 0%

How did CCN(CC(=O)Nc1ccc2c(c1)OCCO2)C(=O)C1CC(=O)N(c2ccc(OC)cc2OC)C1 (stereo not drawn) do in these assays?
Marburg entry inh: -16%; SARS PLP yeast: 5%; StopGo reporter: 0%; RE007 growth inh: 2%; LASV entry inh: 10%

Results for COc1cc(NC(=O)Cc2ccccc2OC)cc(OC)c1 ?
Cruzain inh Det: 7.3%; Marburg entry inh: 3%; SARS PLP yeast: 8%; StopGo reporter: 8%; RE007 growth inh: 10%; Cruzain inh noDet: -9%; NS1 function inh: 7%; LASV entry inh: 0%

Results for Cc1ccc(C)n1-c1ccc(C(=O)NN=C2CCCC2)cc1 ?
Marburg entry inh: 20%[46.1 µM]; SARS PLP yeast: -1%; StopGo reporter: -4%; RE007 growth inh: 11%; NS1 function inh: 16%; LASV entry inh: 23%

Results for CCOc1ccc(CCNC(=O)C2CCN(S(=O)(=O)N3CCCCC3)CC2)cc1OCC ?
Cruzain inh Det: 1.1%; Marburg entry inh: 16%&27%; SARS PLP yeast: 1%; StopGo reporter: -23%; RE007 growth inh: 4%; Cruzain inh noDet: inconclusive; NS1 function inh: -27%; LASV entry inh: 0%&-18%

How did CCCOc1ccc(C(=O)Nc2c[nH]c(=O)[nH]c2=O)cc1 do in these assays?
Cruzain inh Det: 1.0%; Marburg entry inh: 26%; SARS PLP yeast: -6%; StopGo reporter: 6%; RE007 growth inh: -23%; Cruzain inh noDet: -3%; NS1 function inh: -1%; LASV entry inh: 8%

What do the screens show for `COc1ccc(/C=C2/SC(=O)N(CCCCCC(=O)Nc3ccccc3C(=O)O)C2=S)cc1`?
Marburg entry inh: inconclusive; SARS PLP yeast: 0%; StopGo reporter: inconclusive; RE007 growth inh: 6%; NS1 function inh: 0%; LASV entry inh: 11µM*

Results for COCCSc1ccccc1C(=O)Nc1nccs1 ?
Cruzain inh Det: 1.6%; Marburg entry inh: 2%; SARS PLP yeast: -2%; RE007 growth inh: -8%; Cruzain inh noDet: 3%; NS1 function inh: -14%; LASV entry inh: -1%

Results for O=C(O)c1ccc(NC(=O)C2(c3ccccc3)CCCC2)cc1 ?
Marburg entry inh: 2%[46.1 µM]; SARS PLP yeast: -1%; StopGo reporter: -17%; RE007 growth inh: -1%; NS1 function inh: -35%; LASV entry inh: 10%

Results for COc1ccc(NC(=O)Cn2c(=O)oc3cc(S(=O)(=O)NC(C)C)ccc32)cc1OC ?
Cruzain inh Det: -1.8%; StopGo reporter: 32%[activator]; Cruzain inh noDet: 2%; LASV entry inh: -3%[46.1 µM]

What do the screens show for `CCOC(=O)C(NC(C)=O)(Nc1ccc(S(=O)(=O)Nc2onc(C)c2C)cc1)C(F)(F)F` (stereo not drawn)?
Cruzain inh Det: 4.3%; Marburg entry inh: 30%[46.1 µM]; SARS PLP yeast: -4%; StopGo reporter: -1%; RE007 growth inh: 0%; Cruzain inh noDet: 13%; NS1 function inh: -75%; LASV entry inh: inconclusive

Results for Cc1cnn(-c2cc(N/N=C/c3ccccc3F)ncn2)c1 ?
Cruzain inh Det: 3.3%; Marburg entry inh: 4%; SARS PLP yeast: -6%; StopGo reporter: 43%[activator]; RE007 growth inh: 0%; Cruzain inh noDet: -2%; NS1 function inh: 2%; LASV entry inh: 3%

Results for CCOC(=O)Cn1c(=O)n(-c2ccccc2OC)c2nc(-c3ccc(C(C)C)cc3)nc(C(N)=O)c21 ?
Cruzain inh Det: -1.0%; StopGo reporter: -17%; Cruzain inh noDet: -8%; LASV entry inh: inconclusive

What do the screens show for `CSc1ncc(C(=O)Nc2ccc(C(C)=O)cc2)c(C)n1`?
SARS PLP yeast: 1%; StopGo reporter: 39%[activator]; RE007 growth inh: -4%; NS1 function inh: 2%

How did O=[N+]([O-])c1ccc(N2CCN(S(=O)(=O)c3ccccc3[N+](=O)[O-])CC2)cc1NCc1cccnc1 do in these assays?
Cruzain inh Det: -4.9%; Marburg entry inh: -9%; SARS PLP yeast: 6%; StopGo reporter: -9%; RE007 growth inh: 4%; Cruzain inh noDet: inconclusive; NS1 function inh: 14µM*; LASV entry inh: 2%

Results for CCOc1cc(NC(=S)NCC(C)C)c(OCC)cc1NC(=O)c1cccs1 ?
Cruzain inh Det: 1.4%; Marburg entry inh: inconclusive; SARS PLP yeast: 4%; StopGo reporter: -17%; RE007 growth inh: 16%; Cruzain inh noDet: 13%; NS1 function inh: 4%; LASV entry inh: 4%

What do the screens show for `Cc1ccc(-c2csc(N3CCN(c4cc5c(cc4Cl)nc(C)n5CCN4CCCCC4)CC3)n2)cc1`?
SARS PLP yeast: -6%; StopGo reporter: -13%; RE007 growth inh: -13%; NS1 function inh: -11%

What do the screens show for `Cc1ccc(-c2nnc(NC(=O)CCS(=O)(=O)c3ccccc3)o2)c(C)c1`?
Marburg entry inh: 5%; SARS PLP yeast: -6%; StopGo reporter: 8%; RE007 growth inh: 18%; LASV entry inh: inconclusive

Results for Cc1ccc2nc(-c3ccc(NS(C)(=O)=O)cc3)cc(-c3ccccc3)c2c1 ?
Cruzain inh Det: -6.2%; Marburg entry inh: -15%; SARS PLP yeast: -28%; StopGo reporter: -27%; RE007 growth inh: inconclusive; Cruzain inh noDet: 15%; NS1 function inh: -59%; LASV entry inh: -18%
